Assay outcomes as filed in PubChem BioAssay.
GIV Gai3 FP – inhibitors of GIV peptide binding to Galpha-i3, primary screen, biochemical, fluorescence polarization, FITC-GIV GBA peptide, rat Galphai3. Guanine nucleotide-binding protein G(i) subunit alpha-3 (Rattus norvegicus), P08753. 90 min; stronger effect = lower value; scaled: aluminum fluoride 0%, vehicle 100%. percent of control (FP), % (concentration not given with the values). actives 0.42% (n = 210,000). AID 1224905, 2016;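 active = replicate mean at 85% of control or lower, very high polarization wells dropped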;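 note: wells of about 15 µL received 100 nL stock; the first replicate is given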
Target sequence (P08753 whole entry, looked up): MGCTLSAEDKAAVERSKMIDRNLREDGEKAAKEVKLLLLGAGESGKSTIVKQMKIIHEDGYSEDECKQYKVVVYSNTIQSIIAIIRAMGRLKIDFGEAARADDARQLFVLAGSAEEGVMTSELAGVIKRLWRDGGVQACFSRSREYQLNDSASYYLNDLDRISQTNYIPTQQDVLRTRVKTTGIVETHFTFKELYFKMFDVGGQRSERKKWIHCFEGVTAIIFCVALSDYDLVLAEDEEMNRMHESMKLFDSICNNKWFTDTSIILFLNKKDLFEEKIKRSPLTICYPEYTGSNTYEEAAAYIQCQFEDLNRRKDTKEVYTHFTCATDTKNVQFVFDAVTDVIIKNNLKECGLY
HCMV UL50-53 inh – inhibitors of HCMV UL50-UL53 interaction, biochemical, HTRF. AID 1918969, 2023. actives 0.15% (n = 190,000). normalized percent inhibition. inhibition, % (concentration not given with the values);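 active = both replicates at 50% or more, plus weaker picks with an unusually low signal ratio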;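 note: stock transfer was 100 nL into about 20 µL; 0% = negative control wells and 100% = wells with untagged competitor protein; inactives centre near -12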
Sa growth 42C – S. aureus growth inhibition at 42 and 30 °C, primary screen, LtaS inhibitor project, RN4220, two temperatures | OD600, 20 h, 42 °C; stronger effect = lower value | relative growth, % (concentration not given with the values) | actives 0.53% (n = 170,000);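 active = growth at 42 °C up to 50% and 20 or more points under that at 30 °C, or under 10% at both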;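 note: 300 nL library stock went into each well; scaled to the means of positive and negative controls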
Sa growth 42C second temp – further read-out of Sa growth 42C, marked with its call; relative growth, %; measured here: growth at 30 °C;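 optical density after 20 h as mean of two plates; 100% = untreated growth and lower means inhibition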
* marks the source's active call; other numbers are inactive results; nt = no result given; & = joins results of further samples.

structure,HCMV UL50-53 inh,GIV Gai3 FP,Sa growth 42C,Sa growth 42C second temp
O=C(Nc1ccc2c(c1)OCO2)N1CCCC1c1cccc(F)c1 (stereo not drawn),-24,100,nt,nt
O=C1CCCCCN1Cc1nnc(SCc2cnc(-c3ccccc3)s2)n1-c1ccccn1,-12,nt,92,95
O=C(NC1CCCCC1)c1nnc(Cc2cccc(F)c2)o1,0,104,87,90
CCC(Sc1nc2cc3c(cc2c(=O)n1Cc1ccco1)OCO3)C(=O)NCc1ccc(C)cc1 (stereo not drawn),nt,100,108,97
CS(=O)(=O)N1CCN(c2ccc(Nc3c4c(nc5ncnn35)CCC4)cc2)CC1,8,101,nt,nt
CN1CCN(CCNC(=O)CN2C(=O)C3CCCCN3c3ccc(C(=O)N(C)C)cc32)CC1 (stereo not drawn),-14,101,nt,nt
COc1ccc(C(=O)Oc2c(Sc3ccccc3)c(C)nn2-c2ccccc2)c(OC)c1,6,107,69,73
O=C(C1CC1)N1CCc2cc(Br)c(S(=O)(=O)NCCN3CCN(c4ccccc4)CC3)cc21,-13,103,nt,nt
COC(=O)CCCCCN1C(=O)/C(=C\c2cc(Br)c(O)c(OC)c2)SC1=S,-21,192,nt,nt
O=C(CCS(=O)(=O)c1ccccc1)OCc1csc(-c2ccccc2)n1,-18,nt,86,91
CN1CCN(C(=O)C(=O)Nc2c3c(nn2-c2cccc(Cl)c2)CSC3)CC1,nt,104,155,93
CCN(CC)c1ccc(-c2nc(-c3ccccn3)no2)cc1[N+](=O)[O-],-37,99,102,87
COc1cccc(OC)c1C(=O)N[C@@H]1C(=O)N2[C@@H]1SC(C)(C)[C@@H]2C(=O)O,-16,nt,-0.7*,-1.3*
CC(C)(C)c1ccc(S(=O)(=O)N2CCN(Cc3noc(CCC(=O)N4CCCCC4)n3)CC2)cc1,nt,102,98,91
O=C(CC(c1ccc(Cl)cc1)S(=O)(=O)c1ccccc1)c1ccco1 (stereo not drawn),-12,102,113,97
CC(=O)N=Nc1c2[nH]c3ccccc3nc-2c2ccccc12,-80,101,7.6*,7.0*
CSc1ccc(CCNC(=O)c2ccc3c(c2)c(C)c(C)n3Cc2ccc(F)cc2)cc1,nt,104,103,81
Cc1cc(N2CCN(CCO)CC2)n2nc(C(F)(F)F)c(-c3ccc(Cl)cc3)c2n1,3,105,nt,nt
NC(=O)N/N=C/c1ccc(N2CCOCC2)cc1,-72,nt,88,89
COc1ccccc1CNC(=O)CCCCn1c(=O)c2ccccc2n(Cc2ccccc2C)c1=O,-4,97,106,98

Some values from the list:
GIV Gai3 FP, CN1CCN(CCNC(=O)CN2C(=O)C3CCCCN3c3ccc(C(=O)N(C)C)cc32)CC1 (stereo not drawn) is entered as 101
HCMV UL50-53 inh, CC(=O)N=Nc1c2[nH]c3ccccc3nc-2c2ccccc12 is entered as -80
HCMV UL50-53 inh, Cc1cc(N2CCN(CCO)CC2)n2nc(C(F)(F)F)c(-c3ccc(Cl)cc3)c2n1 is entered as 3
Sa growth 42C, O=C(CC(c1ccc(Cl)cc1)S(=O)(=O)c1ccccc1)c1ccco1 (stereo not drawn) is entered as 113
Sa growth 42C second temp, CN1CCN(C(=O)C(=O)Nc2c3c(nn2-c2cccc(Cl)c2)CSC3)CC1 is entered as 93
HCMV UL50-53 inh, CS(=O)(=O)N1CCN(c2ccc(Nc3c4c(nc5ncnn35)CCC4)cc2)CC1 is entered as 8

New compounds follow:
structure,HCMV UL50-53 inh,GIV Gai3 FP,Sa growth 42C,Sa growth 42C second temp
O=S(=O)(/C=C/c1ccccc1)N1CCN(Cc2coc(-c3cccs3)n2)CC1,-11,nt,122,95
Cc1cc(C)c(C(=O)CN2C(=O)NC(CC(C)C)C2=O)cc1C (stereo not drawn),-24,nt,96,87
Cc1ccc(-c2csc(-c3nnn(-c4ccc(C)c(C)c4)c3N)n2)cc1,10,103,92,104
Cc1cc(C)nc(N(C#N)Cc2ccccc2)n1,-2,102,106,111
N#Cc1ccc(Cl)cc1NC(=O)CSc1nnc(-c2ccc(OC(F)F)cc2)n1N,-6,nt,88,96
CCCN1C(=O)C[n+]2ccccc2C1C(=O)Nc1ccccc1C (stereo not drawn),nt,101,90,94
Clc1ccc(OCCN2CCCCC2)cc1,5,107,81,102
Cc1ccc(NC(=O)CN2C(=O)CSc3ccc(S(=O)(=O)N4CCCC4)cc32)cc1F,nt,108,126,97
COc1ccc2c(c1)SC1=NC(=O)C(Cc3ccccc3)C(=O)N12 (stereo not drawn),nt,104,90,68
O=C1CC(Cc2ccccc2)C(=O)N1c1ccc(Cl)cc1 (stereo not drawn),12,103,110,97
Cc1ccc(CNC(=O)C2CCN(Cc3nc(-c4cccc(Br)c4)oc3C)CC2)cc1,nt,100,112,86
Cc1nc2nc(CC(=O)N3CCC(C)CC3)nn2c(C)c1Cl,-9,103,107,90
CN1CCN(C(=O)CN2C(=O)COc3ccc(C(=O)N(C)C)cc32)CC1,-20,99,nt,nt
O=c1c(C2CCCCC2)c(O)c2cccc3c2n1CCC3,-1,97,92,86
c1ccc(COc2ccc(Oc3ncnc4c3oc3ccccc34)cc2)cc1,-8,nt,97,93
CCN(C(=O)c1ccc2c(c1)OCO2)C12CC3CC(CC(C3)C1)C2,-2,nt,84,104
Cc1ccc(S(=O)(=O)N2CCCN(C)CC2)cc1,-14,nt,93,88
COc1ccc(C(=O)Oc2cccc(-n3cnnn3)c2)cc1,-18,101,nt,nt
CN(C)/N=C/c1ccc(OC(=O)c2ccc(Br)cc2)cc1,4,nt,88,94
Cc1cc(C)n2nc(CN(C(=O)C3CCCCC3)c3ccc(F)cc3)nc2n1,20,107,nt,nt
Cn1c(SCc2cccc(F)c2)nc2c([nH]c3ccccc32)c1=O,nt,109,104,100
Cc1cc(C(=O)CN2C(=O)CCC2=O)c(C)n1Cc1ccccc1,-12,nt,74,89
NCc1n[nH]c(=S)n1-c1cccc(C(F)(F)F)c1,-15,102,106,93
CC(N)c1ccc(-n2ccnc2)cc1 (stereo not drawn),-28,nt,95,89
COC(=O)c1ccc(C(=O)OC)c(NC(=O)CSc2nc(C)nc3sc4c(c23)CCC4)c1,5,101,nt,nt
Cc1ccc(CSc2ncnc3sc4c(c23)CCC4)cc1,nt,111,80,83
CCCc1[nH]n(-c2nc3ccccc3s2)c(=O)c1C=NCC1CCCO1 (stereo not drawn),-2,87,132,105
CC1=NN(C(N)=S)C(=O)C1C(c1ccccc1)C(C#N)C#N (stereo not drawn),-8,nt,93,38
COc1ccc(C2C3CCc4ccccc4C3=NN2CCOC(=O)C2CC2)cc1 (stereo not drawn),-4,97,117,94
NNC(=O)CN1C(=O)COc2ccccc21,-25,nt,98,77
CCCn1c(=O)c2cc(Cl)ccc2n2c(=O)n(CC(=O)Nc3ccc4c(c3)OCCO4)nc12,-28,102,nt,nt
Cc1nc(NC2CCN(Cc3nnnn3Cc3ccc4c(c3)OCO4)CC2)[nH]c(=O)c1C,-3,99,101,71
COc1ccc(Cn2c(C(=O)O)c(CNCc3cccs3)c3ccc(C)cc32)cc1,nt,104,109,83
O=C1CCCN1c1nc2ccccc2s1,8,nt,107,77
Cc1cccc(NC(C)C(=O)N/N=C/c2ccc(O)cc2)c1 (stereo not drawn),-34,100,91,86
Cc1cccc(Nc2nc3nonc3nc2N2CCCCC2)c1C,-6,107,nt,nt
CCn1c2ccccc2n2cc(-c3ccc4c(c3)OCO4)nc12,-13,97,nt,nt
Cc1cc(C)n(C(=O)Nc2ccc(Cl)cc2)n1,nt,103,111,80
CCc1ccc(S(=O)(=O)N(C)C2CCS(=O)(=O)C2)cc1 (stereo not drawn),1,nt,99,92
Cc1cc(C)c2cc(C(=O)N3CCN(c4ncccc4C(F)(F)F)CC3)[nH]c2c1,12,102,96,90
O=C(Nc1sc2c(c1C(=O)NCC1CCCO1)CCCC2)c1cc(=O)c2cc(Cl)ccc2o1 (stereo not drawn),-21,96,nt,nt
Cc1ccc2ncc(C(=O)N3CCN(c4ccccc4)CC3)c(=O)n2c1,-20,97,93,85
O=C(CNCc1ccco1)Nc1cccc(OC(F)(F)F)c1,15,106,95,89
N#C/C(=C\c1cn(CC(=O)NCC2CCCO2)c2ccccc12)C(=O)N1CCCC1 (stereo not drawn),-14,99,103,103
CCn1c2ccccc2c2cc(NC3=NC(C)(C)CS3)ccc21,-10,nt,85,86
COc1cccc(/C=C(\C#N)c2nc3ccccc3c(=O)[nH]2)c1OC,-1,100,92,94
COCCNC(=O)CSc1c2c(nc3cc(Cl)ccc13)CCCC2,-42,101,95,82
CCOc1cccc(=O)c2c(C)n(Cc3ccco3)c(C)c12,-38,145,95,92
CCC(SC1=NCCS1)C(=O)Nc1nnc(-c2ccccc2OC)s1 (stereo not drawn),-39,101,87,82
O=C(O)C1CCS(=O)(=O)C1 (stereo not drawn),-10,101,108,84
COc1cc2[nH]c(=O)n(CCCC(=O)N3CCN(c4cccc(C(F)(F)F)c4)CC3)c(=O)c2cc1OC,-4,104,107,89
CSc1cccc(NC(=O)C2CCN(C(=O)c3cnn(-c4ccccc4)c3-n3cccc3)CC2)c1,-8,100,95,81
Cc1cc(NC(=O)C(F)(F)F)n(-c2ccccc2)n1,-24,nt,79,45
C=CCNC(=S)N1CCc2c([nH]c3ccccc23)C1C(F)(F)F (stereo not drawn),-16,108,109,92
O=C(Nc1cc(F)ccc1F)c1ccc(-n2nc(OCc3ccc(Cl)cc3)ccc2=O)cc1,-1,105,nt,nt
COc1cc(NC(=O)C2=CC(c3ccc(F)cc3)=NS(=O)(=O)N2C)cc(OC)c1OC,-32,105,113,83
COc1ccccc1NC(=O)C1=C(C)Nc2nc(SCC(=O)c3ccc(C)cc3)nn2C1c1ccc(F)cc1 (stereo not drawn),nt,103,118,100
Cc1nc(-c2ccc(S(=O)(=O)Nc3ccc(C#N)cc3)cc2)co1,nt,107,84,98
NC(=S)Nn1c(CCC(=O)O)ccc1-c1cccs1,-16,103,109,95
Cc1ccc(NCc2cccn2-c2nnc(N3CCC(C(=O)NCc4ccc(OC(C)C)cc4)CC3)s2)cc1,-4,101,99,93

Given as labelled records: 2 of the compounds above.
smiles: O=C1CCCCCN1Cc1nnc(SCc2cnc(-c3ccccc3)s2)n1-c1ccccn1
  HCMV UL50-53 inh: -12	GIV Gai3 FP: nt	Sa growth 42C: 92	Sa growth 42C second temp: 95
smiles: O=C(NC1CCCCC1)c1nnc(Cc2cccc(F)c2)o1
  HCMV UL50-53 inh: 0	GIV Gai3 FP: 104	Sa growth 42C: 87	Sa growth 42C second temp: 90

Later entries
structure,HCMV UL50-53 inh,GIV Gai3 FP,Sa growth 42C,Sa growth 42C second temp
O=C(c1cnc(NS(=O)(=O)c2ccccc2)nc1)N1CCOCC1,-4,102,80,85
CN(C)c1nnc(Cl)c2ccccc12,-61,100,nt,nt
Cc1ccc(S(=O)(=O)N2CCN(CC(=O)N3N=C4/C(=C/c5cccs5)CCCC4C3c3cccs3)CC2)cc1 (stereo not drawn),-18,nt,110,93
COc1ccc(N2CC(NC(=O)C3CCCCC3)CC2=O)cc1OC (stereo not drawn),nt,99&102,98,93
CC1=C(C(=O)NCc2ccccn2)C2(CCN(S(C)(=O)=O)CC2)OC1=O,-19,107,nt,nt
COC(=O)c1cc(S(=O)(=O)NCc2cccs2)c[nH]1,0,106,101,102
CCC(=O)N1N=C(c2c(O)n(C)c(=S)n(C)c2=O)CC1c1ccc(Br)cc1 (stereo not drawn),-24,95,nt,nt
COc1ccccc1-c1cc2nc(C)c(CCC(=O)NCc3cccc(Cl)c3)c(C)n2n1,3,111,92,92
CCC(=O)c1cn(CC(=O)O)c2ccccc12,3,100,85,82
S=C(Nc1cccc(Cl)c1)N1CCc2ccccc2C1,-28,107,92,92
O=C1CN(CC(=O)Nc2ccc3c(c2)OC(F)(F)O3)CCN1,-6,nt,82,90
O=C(NCc1csc(-c2cccs2)n1)c1nc2ccccc2s1,1,104,112,97
O=C(Nc1ccc(N2CCCCC2)cc1)c1ccc2c(c1)OCO2,-20,103,111,76
Cc1ccc(Sc2c(C)nn(C(C)(C)C)c2OC(=O)CC(C)C)cc1,-5,103,101,82
Cc1nn2c(=O)cc(COC(=O)c3ccc(NC(=O)COc4ccccc4F)cc3)nc2s1,nt,105,94,98
